Cruzain inh noDet: blocks cruzain activity in detergent-free assay; P25779; purified cruzain, Z-FR-AMC fluorescence, no detergent; Potency, µM, for inactives: max response, negative = inhibition, hits mostly inhibitors; hit rate 2.3% among 200,000; AID 1476;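 further: plate controls were enzyme without inhibitor for no effect and buffer without enzyme for full effect; nearly all actives have a fitted effect of over 40% in size; top concentration of the series not given in the record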
Target sequence (P25779 123-467 limits assumed): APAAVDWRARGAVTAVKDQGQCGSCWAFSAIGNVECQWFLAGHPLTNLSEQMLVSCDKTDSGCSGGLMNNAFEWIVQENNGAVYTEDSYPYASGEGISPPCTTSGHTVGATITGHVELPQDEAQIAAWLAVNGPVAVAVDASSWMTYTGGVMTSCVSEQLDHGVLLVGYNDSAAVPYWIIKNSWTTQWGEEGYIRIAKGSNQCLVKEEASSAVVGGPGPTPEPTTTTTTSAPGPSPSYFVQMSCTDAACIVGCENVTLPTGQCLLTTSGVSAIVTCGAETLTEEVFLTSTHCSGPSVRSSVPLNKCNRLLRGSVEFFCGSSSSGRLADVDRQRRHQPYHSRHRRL
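Purified cruzain at 1.5 nM, pre-incubated 15 min with compound at room temperature in 100 mM sodium acetate pH 5.5, 5 mM DTT, 0.00005% Triton X-100. Reaction started with 2 uM Z-FR-AMC; AMC fluorescence increase over 60 s gives rate.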
Cruzain Triton: blocks cruzain activity in presence of Triton detergent; P25779; purified cruzain, Z-FR-AMC fluorescence, 0.01% Triton; Potency, µM, inactives show max response, negative = inhibition, most hits filed as inhibitors; hit rate 0.43% among 200,000; AID 1478;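 further: plate controls were neutral wells for no effect and buffer without enzyme for full effect; nearly all actives have a fitted effect of over 40% in size; top concentration of the series not given in the record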
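15 min RT preincubation of 1.5 nM cruzain with compound, then 2 uM Z-FR-AMC added; kinetic AMC fluorescence, 60 s delta. Triton X-100 0.01%, pH 5.5.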
RE007 growth inh: less growth of the S. pombe RE007 Vpr strain. hit rate 0.21% among 360,000. S. pombe RE007 Vpr strain, BacTiter-Glo ATP luminescence, 24 h; control for the full effect not named in the record. AID 651644. Potency, µM (titrated, usually from 92.2 µM), without a hit: at the highest dose activity change, negative = less growth; active = well fitted falling curve with a large enough effect; inconclusive = small, poorly fitted or top-dose-only effect; inactive = no such curve, though single readings can be large or run the other way;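 further: on the % scale 0 is the no-effect control and ±100 the full control effect; nearly all actives have a fitted effect of over 50% in size; the assay follows cell death caused by Vpr and the record does not say whether a fall means rescue or toxicity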
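Fission yeast RE007 carrying one integrated HIV-1 vpr copy, seeded at OD 0.01 in PMG+AL medium with 23 nL pinned compound. Grown 24 h at 30 degrees; viability read by BacTiter-Glo luminescence after 5 min.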
MARV entry inh: inhibitors of Marburg virus binding or cell entry | Marburg virus pseudotyped entry inhibition, cell reporter; control for the full effect not named in the record; about a third of the inactives were read at about 46 µM | Potency, µM (highest dose often 37.8 µM), inactives show at the top dose activity change, negative = inhibition, usual class: inhibitors | hit rate 1.8% among 300,000 | AID 540276; active = well fitted inhibition curve with a large enough effect; inconclusive = small, poorly fitted or top-dose-only effect, or effect the other way; inactive = flat fitted curve, though single readings scatter; tested in HEK293 cells; about a fifth of its hits are not listed in these tables; further: on the % scale 0 is the no-effect control and ±100 the full control effect; luciferase read-out
SARS PLpro yeast: SARS-CoV PLP inhibition in yeast; Potency, µM (highest dose often 32.9 µM), for the others: at the highest dose activity, positive = growth rescue; AID 485353; S. cerevisiae expressing SARS-CoV PLpro, growth rescue; control for the full effect not named in the record; hit rate 0.19% among 330,000; active means well fitted rising curve with a large enough effect; inconclusive means small, poorly fitted or top-dose-only effect; inactive means no such curve, though single readings can be large or run the other way; further: 0% is about no effect; nearly all actives have a fitted effect of over 55% in size; growth read by luminescence after 48 h
NS1 function inh: inhibitors of influenza NS1 protein function. S. cerevisiae slowed by influenza A NS1, growth recovery by OD600. hit rate 0.4% among 270,000. AID 2326. Potency, µM (top dose mostly 46.1 µM), for inactives: top-dose activity, positive = more growth; active means well fitted rising curve with a large enough effect; inconclusive means small, poorly fitted or top-dose-only effect; inactive means no such curve, though single readings can be large or run the other way; further: nearly all actives have a fitted effect of over 50% in size
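S. cerevisiae expressing influenza A NS1, grown in glucose, washed, then diluted 1:100 into pH 6.0 -URA galactose medium with 23 nl compound. Growth recovery read as OD600; NS1-free strain serves as control.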
2A StopGo: FMDV 2A StopGo reporter, luciferase signal. Potency, µM (top dose mostly 57.9 µM), for the others: top-dose signal change, negative = less light. AID 1159524. hit rate 1.2% among 410,000. human cells with a luciferase reporter of 2A StopGo recoding; control for the full effect not named in the record; active = well fitted falling curve with a large enough effect; inconclusive = small, poorly fitted or top-dose-only effect; inactive = no such curve, though single readings can be large or run the other way; tested in HEK293T cells; further: on the % scale 0 is the no-effect control and ±100 the full control effect; nearly all actives have a fitted effect of over 45% in size; luciferase light after 4 h
Lassa entry inh: Lassa virus entry inhibition | Lassa virus pseudotype entry inhibition, cell reporter; control for the full effect not named in the record | Potency, µM (doses to about 37.9 µM), without a hit: at the top dose activity change, negative = inhibition, most hits filed as inhibitors | hit rate 1.2% among 300,000; active means well fitted inhibition curve with a large enough effect; inconclusive means small, poorly fitted or top-dose-only effect, or effect the other way; inactive means flat fitted curve, though single readings scatter; tested in HEK293 cells; further: on the % scale 0 is the no-effect control and ±100 the full control effect; nearly all actives have a fitted effect of over 50% in size; luciferase read-out
* hit, by the source's call; ? = inconclusive; . = no result given; & = joins results of further samples; [ ] = dose if it differs, or a comment. Unless noted, the call rests on the fitted dose curve; in most records, active means well fitted curve in the direction sought with a large enough effect; inconclusive means small, poorly fitted or top-dose-only effect, or another doubt; inactive means no such curve, though single readings can be large; an effect the other way counts as inactive or inconclusive. Potency means the concentration at half of the fitted maximal effect.

canonical_smiles | Lassa entry inh | Cruzain inh noDet | Cruzain Triton | SARS PLpro yeast | 2A StopGo | MARV entry inh | NS1 function inh | RE007 growth inh
CCN(CC)C(=O)C1CCC(CNS(=O)(=O)c2cccc3cccnc23)CC1 (stereo not given) | 1% | -9% | -0.1% | 8% | -16% | -10% | -10% | -2%
CCCN1CCN(CCCNC(=O)CN2C(=O)c3cccnc3Oc3ccc(Cl)cc32)CC1 | . | . | . | -3% | -6% | . | -20% | 7%
O=C(CCC(=O)N1CCOCC1)Nc1nnc(C2CCCCC2)s1 | 2% | 3% | 1.3% | 13% | -2% | 17% | 8% | 1%
O=C1CN(S(=O)(=O)c2cc(Cl)ccc2Cl)CCN1 | 10% | . | . | -5% | 28% | -23% | 2% | 12%
N#Cc1cccc(NC(=O)CN2C(=O)NC3(CCCCCC3)C2=O)c1 | -2% | . | . | -2% | -27% | 19% | . | 2%
CN1C(=O)C(CC(=O)NC2CCCCC2)SC1=Nc1ccccc1 (stereo not given) | -2% | 7% | 2.2% | 1% | 2% | 5% | 5% | 12%
CC(=O)Nc1ccc(Sc2ccc([N+](=O)[O-])o2)cc1 | ? | . | . | . | 35µM* | ? | . | ?
CCCCn1c(N)c(N(CC(C)C)C(=O)C2CC(=O)N(c3ccc(CC)cc3)C2)c(=O)[nH]c1=O (stereo not given) | -1%[46.1 µM] | . | . | -1% | 3% | 9% | . | -16%
Cn1c2ccccc2c2cc(/C=N/NC(=O)c3ccc(O)cc3O)ccc21 | . | . | . | -2% | -23% | . | 8% | 3%
CCNC(=O)CC1C(=O)N(c2ccccc2)C(=O)N1Cc1ccc(F)cc1 (stereo not given) | 15%[46.1 µM] | -18% | -0.8% | . | -10% | 1%[46.1 µM] | . | .
O=C(Nc1ccc(-c2cnco2)cc1)c1ccccc1 | 19%[46.1 µM] | . | . | -2% | 39%[activator] | 13%[46.1 µM] | -6% | -3%
Cc1cc(-c2ccccc2)n2ncnc2n1 | . | . | . | 2% | -21% | . | -67% | -5%
COC(=O)C1=C(C(=O)c2ccccc2)C(c2ccccc2)n2nnnc2N1 (stereo not given) | -17%[46.1 µM] | . | . | 0% | -14% | -2%[46.1 µM] | -1% | 19%
O=C(CN1CCOCC1)NCc1cc([N+](=O)[O-])ccc1O | . | . | . | 1% | 0% | . | -8% | -1%
COCCn1c(SCC(=O)Nc2ncc(Cl)c(C)c2Cl)nc2ccccc21 | ? | 1% | -2.5% | -6% | -21% | ? | -13% | 1%
CC1CCN(c2ccc(NC(=O)c3cccnc3Cl)cc2)CC1 | . | . | . | 0% | 57%[activator] | . | ? | -6%
CCNC(=O)COc1ccc(F)cc1C(=O)c1cnn(-c2ccccc2)c1 | ? | . | . | 2% | -11% | 7% | 3% | 4%
O=C(Nc1nc2cc3c(cc2s1)OCO3)c1cccc(N2C(=O)CCC2=O)c1 | . | . | . | -1% | 30% | . | -4% | -2%
COc1ccc(COc2cc(-c3cccc(OC)c3)nc3ccc(NC(=O)c4ccccc4)cc23)cc1 | ? | 7.9µM* | 2.5%&-1.4% | 0% | ? | -39% | ? | 12%
O=C1c2ccccc2NC(c2ccc3c(c2)OCO3)N1O (stereo not given) | -3% | -7% | 4.1% | 9% | 11% | ? | -13% | -8%
Cc1ccc(OCC(=O)NCCNC(=O)c2ccc(C)nc2)cc1 | 22%[46.1 µM] | . | . | 2% | 20% | ? | 9% | 12%
CC(=O)c1c(C)[nH]c(C(=O)N2CCN(c3ccccn3)CC2)c1C | . | . | . | 0% | -11% | . | 6% | 5%
O=C(COC(=O)c1ccc[nH]c1=O)Nc1ccc(S(=O)(=O)N2CCCC2)cc1 | . | . | . | -2% | -8% | . | 11µM* | -7%
CC(=O)Nc1nc(-c2ccc(Cl)cc2)ns1 | ? | -21% | -11% | -42% | -25% | ? | -26% | -18%
Cc1ccc(NC(=O)C2CCCN(C(=O)c3ccc(Cl)cc3)C2)cc1 (stereo not given) | 9% | . | . | -1% | 8% | ? | . | 9%
Cc1ccc(NC(=O)Cn2cc3c(n2)CCCC3)c(Cl)c1 | -1%[46.1 µM] | 7% | -3.3% | . | -4% | 21%[46.1 µM] | . | .
N#Cc1cc(N)ccc1Sc1ccc(Cl)cc1 | -14% | -6% | -15% | -7% | -20% | -4% | -46% | -20%
COc1ccc(-c2nn(-c3ccccc3)cc2/C=N/NC(=O)c2cccc(S(=O)(=O)Nc3ccccc3OC)c2)cc1 | -3% | 10µM* | -6.7% | 4% | 14% | -11% | 10µM* | 6%
CCOC(=O)Cc1csc(SCc2nc3sc4c(c3c(=O)[nH]2)CCC4)n1 | -3% | -1% | -1.9% | 5% | -28% | ? | -11% | 4%
COc1ccc(/C=N/NC(=O)c2nnn(-c3nonc3N)c2-c2cccc(OC)c2)cc1 | . | . | . | -7% | -6% | . | -2% | 5%
Cc1ccsc1C(=O)N1CCc2ccccc2C1 | . | . | . | -4% | 39%[activator] | . | -5% | ?
Cc1ccc(NC(=O)CSc2nsc(SCC(=O)Nc3ccc(C)cc3C)c2C#N)c(C)c1 | -21% | 10µM* | -8.3% | -10% | -20% | 17%[46.1 µM] | 2% | -1%
COc1ccccc1N1CCN(c2ncccc2-c2nc(-c3ccc(Cl)cc3)no2)CC1 | -5%[46.1 µM] | 9% | -2.7% | . | 15% | ? | . | .
CN(C)c1nc(N(C)C)nc(N2CC(CCl)OC2=N)n1 (stereo not given) | 3%[46.1 µM] | . | . | 0% | -9% | 3%[46.1 µM] | 1% | 0%
O=C(N/N=C/c1cccnc1)c1cc(-c2cccs2)nc2ccccc12 | -17% | ? | -12% | 5% | 0% | ? | 16% | -1%
O=C(O)c1ccc(CNC(=O)c2ccccc2NC(=O)c2cccc([N+](=O)[O-])c2)cc1 | 15% | . | . | 0% | 0% | 6%[46.1 µM] | . | 13%
CCOc1cc(CNn2cnnc2SCC(=O)NC(C)(C)C)ccc1OCC(=O)NC(C)(C)C | -1%[46.1 µM] | . | . | -1% | -22% | 9%[46.1 µM] | 4% | 3%
CSc1ccccc1NC(=O)COC(=O)c1c[nH]c(=O)[nH]c1=O | . | . | . | 0% | -16% | . | 0% | -6%
O=C(NCCCn1ccnc1)C(F)(F)C(F)(F)C(=O)NCCCn1ccnc1 | -21% | 5% | 4.4% | 4% | -24% | 15% | 4%[9.22 µM] | -1%
COc1ccccc1/C=C/C=N/n1c(-c2ccc(C)cc2)n[nH]c1=S | 3.7µM* | 10µM* | -2.8% | 20% | 10% | ? | ? | 2%
COc1c2ccoc2c(OC)c2oc(=O)ccc12 | . | -12% | -2.6% | 2% | -4%&-15% | . | -1% | 1%
Cc1cc(C)c2c(CC(=O)N3CCN(c4cccc(Cl)c4)CC3)coc2c1 | -3%[46.1 µM] | -1% | -9.3% | . | -12% | ? | . | .
COc1cc(S(=O)(=O)N2CCOCC2)c(OC)c(S(=O)(=O)N2CCOCC2)c1 | 6% | . | . | . | . | -13% | -13% | 5%
CCOC(=O)N1CCN(C(=O)c2ccc3nc(N4CCC(C)CC4)sc3c2)CC1 | 3% | 19% | -1.1% | 4% | -22% | -3% | -8% | -9%
CC(=O)NC1c2ccccc2C(=O)N1Cc1ccccc1 (stereo not given) | . | . | . | -2% | 11% | . | 2% | 6%
CCOc1ccc(Cc2n[nH]c(=S)n2N)cc1 | 9% | 16% | 0.3% | 13% | -10% | 2% | 9% | 14%
CCOC(=O)CC1(NC(=O)C2CCC(=O)N(C3CC3)C2)CCCCC1 (stereo not given) | . | . | . | -4% | 0% | . | 2% | 5%
COc1ccc(C(=O)NCC(c2cccnc2)N2CCc3ccccc32)cc1OC (stereo not given) | -9%[46.1 µM] | -13% | -1.8% | . | -30% | . | . | .
O=C(c1ccccc1Cc1ccccc1)N1CCN(S(=O)(=O)c2ccccc2[N+](=O)[O-])CC1 | -23% | . | . | -10% | ? | ? | . | 6%
CCOc1ccccc1-c1c2cc(O)c(=O)cc-2oc2cc(O)c(O)cc12 | ? | -8% | -8.1% | 11µM* | ? | ? | ? | ?
CN(CCC#N)C(=O)COC(=O)c1ccc(Cl)cc1O | -2% | . | . | -2% | -5% | 7%[46.1 µM] | 3% | 21%
O=C(O)CSc1ncnc2scc(-c3ccccc3)c12 | 22% | . | . | 0% | -15% | -1%[46.1 µM] | -4% | -14%
CC(Sc1nnc(C2CC2)n1N)C(=O)NC1CCCCC1C (stereo not given) | 11% | . | . | 2% | -17% | -13% | 5% | 22%
O=C(c1ccc2[nH]c(=O)c(=O)[nH]c2c1)N1CCc2ccccc21 | . | . | . | ? | 8% | . | -6% | -17%
O=C(O)c1ccccc1/C=N/Nc1ccc(S(=O)(=O)N2CCCC2)cc1[N+](=O)[O-] | 27% | . | . | 0% | 16% | 1%[46.1 µM] | 2% | -1%
Cc1cccc(NC2=C(Cl)C(=O)OC2OC(=O)c2ccco2)c1 (stereo not given) | 0% | . | . | 1% | -19% | -22%[46.1 µM] | . | -11%
CON(C)S(=O)(=O)c1cccc(C(=O)NC2CCSc3ccccc32)c1 (stereo not given) | ? | . | . | 2% | 18% | ? | -13% | 12%
COc1cc(S(=O)(=O)NC(Cc2c[nH]c3ccccc23)C(=O)O)ccc1NC(C)=O (stereo not given) | 15% | . | . | 0% | -16% | 4%[46.1 µM] | 2% | 10%
Cc1cc(C)cc(OCC(=O)NN2C(=O)c3ccccc3C2=O)c1 | 8% | -12% | -3.6% | ? | -12% | 5% | 7% | -10%

Compound activity from PubChem.
